Source: PubChem (several laboratories)
ALR inh: blocks human ALR sulfhydryl oxidase activity. P55789. purified ALR, DTT oxidation, H2O2 HRP-luminol luminescence. inhibition, % (concentration not given with the values). actives 3.8% (n = 290,000);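 active = mean and each replicate at 75% or more; inconclusive = only one of the two met; inactive = neither met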;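 note: stock transfer was 7.5 nL into about 7.5 µL; 0% = neutral wells and 100% = wells with inactivated enzyme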
RanGTP-Impb inh: inhibitors of RanGTP-importin-beta interaction, primary screen, biochemical, FRET, CFP-Ran, YFP-importin-beta, homogeneous; cell-free CFP-Ran/YFP-importin-beta FRET ratio; inhibition, % (no concentration beside the values); actives 1.1% (n = 300,000);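 active = most replicates above 15%; inconclusive = exactly half above 15%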;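 note: 0% = DMSO wells and 100% = Ran loaded with GDP instead of GTP; wells of about 40 µL received 100 nL stock; the first replicate is given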
LANA-H2B inh: blocks KSHV LANA binding to histone H2A/H2B | inhibition, % (concentration not given with the values) | Q9QR71 | actives 0.6% (n = 320,000) | cell-free LANA-H2A/H2B peptide, fluorescence polarization; in the data active = inhibition mostly above about 10%, no sharp cut-off; inactive = mostly below about 6.7%;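 note: stock transfer was 7.5 nL into about 10 µL; 0% = median of vehicle wells and 100% = median of positive control wells; one replicate is shown; the record names a cut of 25% in any replicate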
Calb FLC: affects C. albicans growth with fluconazole; actives 0.57% (n = 300,000); C. albicans CaCi-2 (fluconazole-resistant clinical isolate) + fluconazole, Alamar Blue growth, 48 h; growth inhibition, % (test concentration not listed);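 active = most replicates above 75%; inconclusive = exactly half above 75%; inactive = most below 75%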;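 note: all wells also contain fluconazole at 8 µg/ml as a sub-toxic cotreatment; 0% = median of DMSO wells and 100% = median of geldanamycin control wells; wells of about 8 µL received 7.5 nL stock; the first replicate is given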
HNF4A DNA FP: change in binding of human HNF4 alpha to DNA; HNF4a-FITC DNA binding, fluorescence polarization, 1 h; activity change, % at 10 µM; actives 0.3% (n = 360,000); AID 1224865; in the data active = activity change above about 30%, passing the limit was not always enough;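 note: controls were the assay level and a saturating level of protein; the project sought stronger binding though the title names inhibitors; some compounds called inactive have numbers as strong as hits; positive values seem to mean higher polarization but the record does not say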
Target sequence (P41235 whole entry, looked up): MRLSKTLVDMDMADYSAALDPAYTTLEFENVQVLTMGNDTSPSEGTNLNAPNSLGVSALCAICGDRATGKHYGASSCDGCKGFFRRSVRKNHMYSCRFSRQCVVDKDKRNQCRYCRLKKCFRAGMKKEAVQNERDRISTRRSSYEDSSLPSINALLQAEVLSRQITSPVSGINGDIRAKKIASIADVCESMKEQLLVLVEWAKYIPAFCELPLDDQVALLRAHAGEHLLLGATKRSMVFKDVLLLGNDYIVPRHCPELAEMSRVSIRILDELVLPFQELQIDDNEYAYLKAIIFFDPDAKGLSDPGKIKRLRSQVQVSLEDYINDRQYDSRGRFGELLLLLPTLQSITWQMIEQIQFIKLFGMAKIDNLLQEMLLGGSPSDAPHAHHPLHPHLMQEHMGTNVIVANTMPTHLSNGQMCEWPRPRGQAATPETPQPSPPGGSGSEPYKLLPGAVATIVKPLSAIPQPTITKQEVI
Vif TR-FRET: HIV-1 Vif–A3G interaction blockers – biochemical, TR-FRET, GST-Vif 1-94, biotin-A3G peptide, dose response retest, primary screen (AID 1117319); TR-FRET GST-Vif / biotin-A3G peptide binding; higher % means a stronger effect; test concentration not given here; strong numbers were not always called active; inhibition, %; hits with a dose series show IC50 in µM; actives 0.57% (n = 260,000);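 active = above the screen mean plus three standard deviations and confirmed in dose response; inconclusive = results disagree or hit not tested in dose response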;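 note: Vif residues 1-94 fused to GST binding biotinylated APOBEC3G peptide 110-148; 0% = full assay without inhibitor and 100% = GST in place of GST-Vif; retest series ran down from 100 µM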
B2AR ag: agonists of human beta-2 adrenergic receptor inducing internalization; Am2.2-beta2AR cells, FAP receptor internalization, flow cytometry; reference of the scale not given here; response, % (test concentration not listed); actives 0.43% (n = 340,000);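 active = response above a set limit, near 3 SD of response in nonfluorescent compounds, cut at about 42% in these data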;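 note: stock transfer was 100 nL into about 11 µL; a reference agonist was the positive control; negative values mostly stem from fluorescent compounds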
Target sequence (P07550 whole entry, looked up): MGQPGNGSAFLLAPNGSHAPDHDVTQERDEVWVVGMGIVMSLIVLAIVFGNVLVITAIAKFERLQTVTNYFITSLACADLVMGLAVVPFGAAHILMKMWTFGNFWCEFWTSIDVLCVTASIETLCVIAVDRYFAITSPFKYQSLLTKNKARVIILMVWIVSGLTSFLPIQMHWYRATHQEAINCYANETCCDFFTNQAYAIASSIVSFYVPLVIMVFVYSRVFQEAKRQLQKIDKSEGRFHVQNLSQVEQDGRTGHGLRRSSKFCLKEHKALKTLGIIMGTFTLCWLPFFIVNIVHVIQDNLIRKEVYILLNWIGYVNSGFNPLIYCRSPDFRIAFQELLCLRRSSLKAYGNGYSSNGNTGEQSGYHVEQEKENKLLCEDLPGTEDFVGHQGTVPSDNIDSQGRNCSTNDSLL
Numbers without * were called inactive; ? = inconclusive; / = not tested or not shown; & = joins results of further samples.

SMILES	ALR inh	RanGTP-Impb inh	LANA-H2B inh	Calb FLC	HNF4A DNA FP	Vif TR-FRET	B2AR ag
CC(C)(C)NC(=O)CN(Cc1cccs1)C(=O)CNS(=O)(=O)c1ccccc1	-4.2	-2.2	1.4	-8.6	-0.7	?	-1.2
CCOC(=O)c1c(-c2cccs2)csc1NC(=O)CC(C)C	8.1	4.3	2.5	12.0	2.1	3.7%	-12.1
COCCNC(=O)C(c1ccc(O)cc1)N(Cc1ccccc1)C(=O)CCC(=O)Nc1nccs1 (centres undefined)	0.6	-1.9	-4.9	7.6	0.6	/	-2.8
O=C(/C=C/NNC(=O)c1ccc(Cl)cc1)c1ccccc1	-5.9	9.7	-2.6	-19.4	0.9	3.1%	1.7
COc1c([N+](=O)[O-])c(=O)n(-c2ccccc2)c2ccccc12	5.6	0.4	1.2	11.2	-2.9	/	-9.8
COc1ccc(OCc2nc3c4cc(OC)c(OC)cc4nc(=S)n3[nH]2)cc1	-0.1	4.5	0.3	-19.4	3.4	/	7.7
COc1ccccc1CNC(=O)Cn1nnc(-c2ccncc2)n1	-13.6	5.7	-3.8	-38.2	3.8	0.3%	-2.2
CCOc1cc(CNCCc2ccc(S(N)(=O)=O)cc2)ccc1OCc1ccc(Cl)cc1	-13.7	?	0.8	7.6	-0.8	-0.1%	49.5*
O=C(Nc1ccccc1Cl)c1c(F)c(F)c(F)c(F)c1F	/	0.9	1.8	-22.4	2.2	/	4.2
O=C(NCc1cccc(Cl)c1)c1ccc(CS(=O)Cc2ccccc2Cl)o1 (centres undefined)	48.2	-1.7	2.8	-0.1	2.8	/	7.4
COc1ccc2[nH]c(=O)c(CN(CC3CCCO3)C(=O)Nc3ccc(F)cc3)cc2c1 (centres undefined)	/	-2.7	/	0.3	-0.5	6.3%	31.4
O=C(CCCOc1ccccc1)Nc1ccc(Cl)cn1	-3.0	0.3	1.0	?	1.4	-16.7%	-251.2
CCN1C(=O)c2cccc3c(S(=O)(=O)Nc4ccccc4O)ccc1c23	-28.9	-0.3	-1.0	-31.3	0.5	/	-6.9
O=C1N=C(N2CCOCC2)S/C1=C1\C(=O)N(Cc2ccccc2)c2ccccc21	-40.0	4.1	2.2	-8.3	2.2	-2.5%	15.3
Cc1ccc(-c2nnc(N3CCN(C(=O)COc4ccccc4)CC3)c3ccccc23)cc1	-6.2	2.1	0.2	13.7	-1.5	-4.9%	4.3
COc1cccc(CN(C)C(=O)COc2cccc3c2OC(C)(C)C3)c1OC	/	/	/	/	0.1	-3.5%	0.0
NC(=O)c1c(NC(=O)c2ccc(S(=O)(=O)N3CCOCC3)cc2)sc2c1CCCCC2	1.5	2.5	4.1	-10.9	-3.0	98.3µM*	-9.0
Cc1c(Cc2ccccc2)sc(NC(=O)c2ccco2)c1C(N)=O	-2.4	?	0.3	42.6	3.3	-5.7%	-7.3
CC(C)[C@H](NC(=O)CCn1nnc2ccccc2c1=O)C(=O)O	/	0.9	1.9	-12.1	0.5	-3.7%	-5.8
COc1ccc(NC(=O)CN(C)C(=O)CC2CCCCC2)cc1	/	-3.5	2.4	-7.3	-4.7	6.5%	-11.7
CC(=O)OC(C)C[N+](C)(C)C (centres undefined)	-16.6	-4.4	-21.2	/	2.3	2.0%	8.2
COCCC(=O)N1CCCC(N2CCN(c3ccc(F)cc3)CC2)C1 (centres undefined)	/	-4.3	2.9	3.5	-1.9	/	3.4
CC1CCCN(C(=O)CNC(=O)c2cccs2)C1 (centres undefined)	1.5	/	2.3	/	-1.2	-5.5%	-1.6
Cc1cccc(C)c1OCC(=O)OCC(=O)Nc1ccc(Cl)cn1	-0.4	/	-4.9	/	0.3	-2.6%	-0.1

6 structures out of the list, ordered by SMILES length, ascending.
SMILES	ALR inh	RanGTP-Impb inh	LANA-H2B inh	Calb FLC	HNF4A DNA FP	Vif TR-FRET	B2AR ag
CC1CCCN(C(=O)CNC(=O)c2cccs2)C1 (centres undefined)	1.5	/	2.3	/	-1.2	-5.5%	-1.6
COc1ccc(NC(=O)CN(C)C(=O)CC2CCCCC2)cc1	/	-3.5	2.4	-7.3	-4.7	6.5%	-11.7
Cc1cccc(C)c1OCC(=O)OCC(=O)Nc1ccc(Cl)cn1	-0.4	/	-4.9	/	0.3	-2.6%	-0.1
Cc1c(Cc2ccccc2)sc(NC(=O)c2ccco2)c1C(N)=O	-2.4	?	0.3	42.6	3.3	-5.7%	-7.3
COc1cccc(CN(C)C(=O)COc2cccc3c2OC(C)(C)C3)c1OC	/	/	/	/	0.1	-3.5%	0.0
Cc1ccc(-c2nnc(N3CCN(C(=O)COc4ccccc4)CC3)c3ccccc23)cc1	-6.2	2.1	0.2	13.7	-1.5	-4.9%	4.3

Remaining list, next part
SMILES	ALR inh	RanGTP-Impb inh	LANA-H2B inh	Calb FLC	HNF4A DNA FP	Vif TR-FRET	B2AR ag
c1ccc(-c2nnc(OCc3cccnc3)c3ccccc23)cc1	2.8	-3.0	3.4	?	-1.0	?	-2.0
CC(C)CNC(=S)NNC(=O)c1csc2c1CCCC2	6.4	6.1	5.3	9.5	-0.1	3.3%	-1.8
CC(/C=C/c1ccccc1)=N/NC(=O)c1cnccn1	/	0.3	1.5	3.1	2.0	2.3%	1.5
CC(=O)NC1CSCC1OC(C)=O (centres undefined)	-1.6	-1.1	4.9	1.3	-0.4	15.2%	4.8
CCOC(=O)c1c(C)oc2c1c(C(c1ccccc1)N1CCOCC1)c(O)c1ccccc12 (centres undefined)	-11.2	8.7	2.1	58.6	-0.3	2.1%	4.8
CCOc1ccc(-c2cnc3ccccc3n2)cc1	-4.0	0.2	-3.5	-27.2	0.9	-4.4%	-3.3
O=C(CCn1nc(-c2ccccc2)ccc1=O)N1CCN(c2ccccc2)CC1	?	1.1	-3.0	12.8	3.3	-12.2%	6.3
CCOC(=O)Nc1ccc2c(CN3C(=O)NC4(CCCC4)C3=O)cc(=O)oc2c1	/	/	/	/	1.0	-174.4%&63.3%	21.2
O=C(NCCN1CCOCC1)c1cccc(S(=O)(=O)N2CCCCCC2)c1	/	4.7	-0.2	-3.6	-0.3	3.7%	5.4
CC(=O)c1ccc(NC(=O)c2ccccc2Sc2ncnc3sc(C)c(C)c23)cc1	-0.1	0.4	-5.3	20.9	-0.2	-5.0%	-5.9
CS(=O)(=O)NNC(=O)c1cc2cc3ccccc3nc2s1	-9.6	/	-0.4	-8.3	2.7	10.0%	-1.8
Cc1cccc(C(=O)Nc2cc(S(=O)(=O)N3CCOCC3)ccc2N2CCCCC2)c1	/	/	-4.7	/	-2.4	-17.0%	9.5

Laid out differently: 2 of the compounds above.
| Compound | ALR inh | RanGTP-Impb inh | LANA-H2B inh | Calb FLC | HNF4A DNA FP | Vif TR-FRET | B2AR ag |
| --- | --- | --- | --- | --- | --- | --- | --- |
| CC(C)CNC(=S)NNC(=O)c1csc2c1CCCC2 | 6.4 | 6.1 | 5.3 | 9.5 | -0.1 | 3.3% | -1.8 |
| CC(/C=C/c1ccccc1)=N/NC(=O)c1cnccn1 | / | 0.3 | 1.5 | 3.1 | 2.0 | 2.3% | 1.5 |

(next part)
SMILES	ALR inh	RanGTP-Impb inh	LANA-H2B inh	Calb FLC	HNF4A DNA FP	Vif TR-FRET	B2AR ag
O=C(NNC(=O)C1CC2CCC1C2)c1ccccc1 (centres undefined)	/	-2.7	0.4	1.1	1.2	/	2.1
CS(=O)(=O)c1ccc2nc(NC(=O)CCN3C(=O)c4ccccc4C3=O)sc2c1	0.4	3.1	-1.3	9.8	-0.9	-3.9%	-1.2
C#CC1(O)CCCC2C3CCC4CC(OC(C)=O)CCC4(C)C3C(=O)CC21C (centres undefined)	/	/	/	/	0.5	0.1%	2.5
Cc1cc(N2CCOCC2)n2cc(-c3ccc(F)cc3)nc2n1	-4.1	-0.2	-6.0	-13.2	3.7	-4.0%	-7.5
CC(=O)Nc1ccc(NC(=O)C(=O)NCC(c2ccco2)N2CCc3ccccc3C2)cc1 (centres undefined)	1.1	-2.2	-2.1	2.0	-1.8	-5.1%	0.9
CC(C)CCNC(=O)CSc1nc2ccsc2c(=O)n1NC(=O)c1ccccc1	-9.6	0.1	4.3	-7.9	3.0	3.4%	-0.1
CSc1nc2ccccc2n1C(=O)Oc1ccccc1	3.1	0.1	1.0	15.0	0.9	2.0%	-0.8
Cc1cccc(Cn2c(NCCO)nc3c2c(=O)n(C)c(=O)n3C)c1	24.5	2.1	-4.4	-6.8	-3.6	21.9%	-3.1
Cc1cc(C)c(S(=O)(=O)N2CCN(C(=O)N3CCOCC3)CC2)c(C)c1	-26.6	-12.3	-4.9	-7.9	-0.4	-10.6%	-10.9
COc1cc(/C=N/NC(=O)C(=O)NCc2cccnc2)ccc1O	43.5	4.4	-0.6	20.6	-0.2	1.6%	-3.0
COc1ccc(NC(=O)CNC(=O)Cn2cnc3sc(C)c(C)c3c2=O)cc1OC	-1.5	1.7	9.8	2.1	-1.5	/	-5.0
COc1cccc(Oc2ccc(C(F)(F)F)cc2NC(=O)CN2C(=O)NC3(CCCC3)C2=O)c1	/	/	-4.9	/	0.0	/	-0.5
CN(Cc1ccccc1)C(=O)CN1C(=O)NC2(CCCCCCC2)C1=O	1.5	/	-0.8	/	1.2	/	-1.4
N#Cc1ccc(C(=O)NC2CCCc3ccccc32)cc1 (centres undefined)	-17.3	0.0	2.3	-14.3	1.3	5.6%	0.4
COc1ccccc1NC(=O)OCC#CCOC(=O)Nc1ccccc1OC	-38.3	1.6	3.0	/	-1.1	-4.4%	2.8
CN(C)C1=NCCN1CC1CCCC1	1.5	/	-3.9	/	3.2	/	-9.7
CC(=Nc1ccc(C)c(C)c1)C1=C(O)CCC1=O	-2.9	1.9	0.6	-0.4	0.3	6.8%	-2.4
COc1ccc(Br)cc1CNC(=O)C1CCCN(S(C)(=O)=O)C1 (centres undefined)	-1.1	3.9	11.6	-1.0	-4.1	-1.7%&-1.2%	0.6
CCOC(=O)N1CCN(C(c2cccnc2)c2ccc3cccnc3c2O)CC1 (centres undefined)	2.2	0.4	-19.7	-9.7	-1.1	?	13.3
COc1ccc(C2/C(=C(/O)c3ccccc3)C(=O)C(=O)N2c2ccccn2)cc1OC (centres undefined)	3.8	0.0	-5.9	-4.0	0.2	5.8%	-4.9
C=CCN1C(=O)CC(C(=O)NC)SC1=Nc1ccc(C(=O)OCC)cc1 (centres undefined)	2.5	-4.6	14.1	-3.3	0.7	-0.1%	-1.6
COC(=O)CC(c1ccc(C(C)C)cc1)n1cccc1 (centres undefined)	-12.0	-0.3	-6.1	-18.9	6.1	10.1%	9.2
Cc1ccc(C)c(NC(=O)C2CC3c4ccccc4C2c2ccccc23)c1 (centres undefined)	-7.5	3.8	0.8	-3.8	4.9	1.5%	-4.2
CC1CCN(S(=O)(=O)c2ccc(S(=O)(=O)N3CCCC3)cc2)CC1	-0.2	-4.0	9.1	11.5	-2.4	-8.0%	-2.2
COc1cccc(OCCNc2cc(N3CCOCC3)ccc2[N+](=O)[O-])c1	-2.9	1.3	4.2	39.3	4.6	11.2%	-5.0
COc1ccccc1NC(=O)CSc1nnc(-c2ccc(C)cc2)o1	6.0	1.2	2.7	-5.0	-2.4	-4.5%	2.2
CCOC(=O)C1CCN(C(=O)CNC(=O)c2nn(-c3ccc(OC)c(Cl)c3)c(=O)c3ccccc23)CC1	-4.8	1.3	-11.3	4.0	1.4	/	5.4
